ugtP null kill: compounds lethal to S. aureus RN4220 ugtP deletion mutant; growth inhibition, % (no concentration beside the values); OD600 growth, 16 h; some inactives read as strong as hits; 330,000 tested, 0.54% active; AID 1259309;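 active = z-score under -3 and OD600 up to 0.15 on both plates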;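 also: plate controls were untreated wells for no effect and antibiotic for full effect; wells of about 80 µL received 100 nL stock; the first replicate is given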
PrP UTR inh: inhibition of PrP 5' UTR reporter expression | 340,000 tested, 0.35% active | AID 488862 | inhibition, % (concentration not given with the values) | cell-based PrP 5' UTR mRNA reporter, plate reader;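 active = every replicate at 50% or more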;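 also: 0 = median of the neutral control wells; tested in H4 reporter cells; numbers are from one replicate; inactives centre near -14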
RN4220 kill: kills Staphylococcus aureus RN4220. S. aureus RN4220 growth, OD600, 16 h. inhibition, % (test concentration not listed). 330,000 tested, 0.33% active. AID 1259311;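 active = z-score of -3 or lower and OD600 up to 0.18 on both plates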;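 also: plate controls were untreated cells for no effect and reference antibiotic for full effect; stock transfer was 100 nL into about 80 µL; one replicate is shown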
BJeLR viability: kills HRASV12-expressing BJeLR cells. 300,000 tested, 0.17% active. inhibition, % (no concentration beside the values). AID 1554. BJeLR (HRASV12) viability, CellTiter-Glo ATP luminescence, 48 h; reference of the scale not given here;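 active = replicate mean above 50%; inconclusive = above 50% but judged a plate artefact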;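 also: 50 nL library stock added to about 25 µL; numbers are from one replicate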
Bead autofluor: compound fluorescence in toxin protease inhibitor counterscreen | compound autofluorescence counterscreen, microsphere flow cytometry; stronger effect = higher value | fluorescence intensity (test concentration not listed) | 360,000 tested, 3.1% active | AID 624483;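 active = at least 3 SD above the mean of all compounds, about 16000 in these data; inconclusive = too few beads counted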;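 also: 100 nL of 1 mM stock went into each well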
Mtb hypoxia rep: reduces hypoxia-regulated biosensor signal in M. tuberculosis. 300,000 tested, 0.1% active. AID 1159583. M. tuberculosis hypoxia-regulated fluorescent reporter, fluorescence. fluorescence inhibition, % (test concentration not listed);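 active = 35 to 45% if threefold the growth effect, above 45% if 1.5-fold the growth effect; inactive = the rest, general growth blockers included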;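 also: wells of about 50 µL received 100 nL stock; 0% = vehicle wells and 100% = reference inhibitor wells; whole bacteria with a GFP reporter of the hypoxia response; strong numbers were not always called active; many hits fall short of the cut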
Mtb hypoxia rep growth: second read-out of Mtb hypoxia rep, no call of its own (marks repeat the call); growth inhibition, %; measured here: M. tuberculosis growth (absorbance);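 0% = vehicle and 100% = reference antibiotic; read after six days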
Starred values were filed as active, the others as inactive; ? = inconclusive; nt = not tested or not shown.

SMILES	ugtP null kill	PrP UTR inh	RN4220 kill	BJeLR viability	Bead autofluor	Mtb hypoxia rep	Mtb hypoxia rep growth
COc1ccc(NC2CCCN(C(=O)c3cc(CC(C)C)nc(N)n3)C2)cc1 (stereo not given)	5	1	0.5	-4	5718	2	6
Cc1ccc(N(CC(=O)NN=Cc2cccnc2)S(=O)(=O)c2ccccc2)cc1	2	nt	3.6	nt	nt	3	3
NC(Cc1ccc(Cl)cc1)=NOC(=O)Cc1ccc([N+](=O)[O-])cc1	-1	nt	0.2	nt	nt	-4	4
CSCCC(NC(=O)COc1ccccc1)C(=O)N(C)Cc1ccc(F)cc1 (stereo not given)	7	-38	2.4	nt	8328	8	5
COc1ccccc1NS(=O)(=O)c1cccc(C(=O)NCC(c2ccco2)N(C)C)c1 (stereo not given)	-4	-12	-2.1	-23	?	-7	6
CC1CCCC(C(=O)OCc2ccccc2)N1 (stereo not given)	4	13	1.3	-6	4678	nt	nt
COc1ccc2c3c1O[C@H]1C(=O)CC[C@H]4[C@@H](C2)N(C)CC[C@]314	6	-17	2.6	nt	6497	nt	nt
O=C1NC(c2ccccc2)=C(c2nc3ccccc3s2)C(c2ccc(F)cc2)N1 (stereo not given)	-41	2	-3.1	0	?	-2	9
CC(C)c1ccc(/C=C2\SC(N3CCCC3)=NC2=O)cc1	-3	19	3.7	20	2496	18	11
CCCc1nc2ccc(NC(=O)c3ccco3)cc2c(=O)n1Cc1ccc(Cl)cc1	-3	-8	0.0	1	3978	-10	9
COc1ccc(NC(=O)C(=O)NCCN2CCN(C(=O)c3cccs3)CC2)cc1	12	-17	3.4	0	3303	nt	nt
O=c1c2cc(N3CCOCC3)ccc2[nH]c(=S)n1CCN1CCCC1	1	-35	1.2	11	9787	5	15
Cc1ccc(Cn2ccc(NC(=O)c3cc(-c4cccs4)on3)n2)cc1	3	-18	0.8	-8	25079*	7	5
C#CCn1c(=NC(=O)c2cc(Cl)sc2Cl)sc2cc(S(N)(=O)=O)ccc21	-9	-5	-13	-9	2026	10	4
COc1ccc(-c2nc3ccccc3n2OC(C)C(=O)O)cc1 (stereo not given)	12	-48	4.1	-7	2275	5	3
[N-]=[N+]=NCC(Cc1ccccc1)N1CCC(OCc2ccccc2)CCC1=O (stereo not given)	2	nt	3.4	nt	nt	-7	6
CCOc1ccc(C(=O)Nc2c(C(N)=O)oc3ccccc23)cc1	3	nt	3.8	-5	9492	-3	4
Cc1nn(-c2ccccc2[N+](=O)[O-])c(=O)c2ccccc12	5	-40	3.3	19	4554	0	5
CCCNC(=O)CS(=O)(=O)c1ccccc1	3	-28	4.3	6	3757	0	-2
COc1ccc(Cl)cc1NC(=O)CNc1ccc(F)cc1C	-22	-9	-5.0	-12	2544	-10	-3
CC1CCCC(C)N1C(=O)CSc1ccc(-c2ccc3c(c2)OCCO3)nn1 (stereo not given)	4	-16	2.1	0	4708	-1	1
O=Cc1ccc(OC(=O)c2cc(Cl)nc3ccccc23)cc1	6	-2	1.9	3	1961	4	14
CC(=O)NC(C)C(=O)OCC(=O)c1ccc(Cl)s1 (stereo not given)	3	-27	3.0	8	4090	11	13
Cn1c(C(=O)N2CCCc3ccccc32)cc2sccc21	4	nt	6.2	2	10890	7	10
CCOC(=O)C1CCN(c2c(NCc3ccc(C(=O)N(C)Cc4ccccc4)cc3)c(=O)c2=O)CC1	-7	-3	-4.6	4	2480	-9	0
SMILES	ugtP null kill	PrP UTR inh	RN4220 kill	BJeLR viability	Bead autofluor	Mtb hypoxia rep	Mtb hypoxia rep growth
Cc1ccc(NC(=S)N(CCN(C)C)C(C)c2ccco2)cc1Cl (stereo not given)	20	-12	1.6	23	5435	5	6
COC(=O)C1=C(c2c(C)noc2C)CC2CCC1N2C(=O)N1CCC(C)CC1 (stereo not given)	-7	nt	5.9	nt	nt	7	6
COc1cc(OC)cc(C(=O)Nc2ccc3nc4n(c(=O)c3c2)CCCCC4)c1	5	-76	0.0	6	5360	7	1
CCCCn1c(N)c(N(CC(C)C)C(=O)C2CC(=O)N(Cc3ccccc3)C2)c(=O)[nH]c1=O (stereo not given)	8	-3	1.3	2	nt	11	4
COc1ccccc1N1CCN(c2cnccn2)CC1	0	-16	6.8	-2	3193	10	7
COC(=O)c1ccc(CSc2nnc(-c3ccccc3)n2C)o1	nt	-10	nt	-3	2980	nt	nt
CCOC(=O)C1CCN(C(=O)CSc2nc(N)cc(=O)[nH]2)CC1	5	3	0.1	-1	4432	-2	0
CC(=NNC(=O)CN1CCCCC1)c1ccccc1O	5	nt	3.0	nt	nt	4	-3
O=C(O)CCC(=O)N1CCN(c2nc(-c3ccccc3)c3cc(Br)ccc3n2)CC1	nt	-23	nt	8	4089	nt	nt
CN(c1ccc2nc3ccccc3c(=O)n2n1)C1CCCCC1	5	78*	3.9	28	4931	5	2
CCC(CO)NCC#Cc1ccccc1 (stereo not given)	nt	-31	nt	-7	4181	nt	nt
COc1cccc(-c2nc(CS(=O)(=O)CC(=O)N3CCCCC3)c(C)o2)c1	-8	-5	-1.7	3	5625	-11	-5
CCOC(=O)N1CCC(NS(=O)(=O)c2ccc3c(c2)CCN3C(C)=O)CC1	3	-14	-3.5	2	4244	nt	nt
C=CCc1ccc(OCCOCCOc2ccccc2[N+](=O)[O-])c(OC)c1	4	-31	1.3	3	2516	nt	nt
CCN(C(=O)C1CCCCC1)c1nnc(-c2cccnc2)s1	10	-16	3.2	7	3738	nt	nt
Cc1ccc(C(=O)CSc2nnc(-c3ccncc3)n2C)cc1	1	-27	0.3	-7	4042	4	-12
C=CCN1c2ccccc2[C@]23CC(C(=O)OC)N(C(=O)NCCC)C2=NC(C(=O)OC)=C(C(=O)OC)C13 (stereo not given in full)	8	nt	-0.9	nt	nt	-1	4
CCCCOCP(=O)(CC)COCCCC	3	-9	8.5	-3	2406	1	13
Cc1cnc(C(=O)OCC(=O)NC2CCCCC2)cn1	-2	-7	-4.3	-14	3471	nt	nt
COCCCNC(=O)C1CC(=O)N(Cc2ccc(OC)cc2)C1 (stereo not given)	7	-22	5.0	-2	7461	7	1
CCOc1cc(C(=O)NC2=NCCS2)cc(OCC)c1OCC	8	-5	3.8	-2	3750	-1	-2
Cc1cccc(NC(=O)COC(=O)C(NC(=O)c2cccc(S(=O)(=O)N3CCOCC3)c2)C(C)C)c1 (stereo not given)	2	1	2.4	nt	5212	-2	-2
O=C(c1ccc(F)c(S(=O)(=O)N2CCOCC2)c1)N1CCN(c2ncccn2)CC1	-4	-23	2.7	nt	4120	-7	2
CC(C)(C)NC(=O)c1ccc(COc2ccc(Cl)cc2Cl)o1	0	-16	7.6	-1	3164	-1	-4
C=CCN(c1ccccc1)S(=O)(=O)c1cccc(C(=O)NCC2CCCO2)c1 (stereo not given)	9	-9	6.2	-13	4416	3	-3
SMILES	ugtP null kill	PrP UTR inh	RN4220 kill	BJeLR viability	Bead autofluor	Mtb hypoxia rep	Mtb hypoxia rep growth
O=C(c1cc(S(=O)(=O)N2CCOCC2)ccc1F)N(CCc1ccccc1)Cc1ccccc1	3	-17	5.2	2	?	10	-4
CC(=O)c1cccc(NC(=O)c2ccccc2N(C)S(=O)(=O)c2ccc(C)cc2)c1	4	-16	3.1	-8	3434	16	3
CC(NC(=O)CCNC(=O)c1ccco1)c1ccccc1 (stereo not given)	0	6	-0.7	5	?	-9	8
Cc1ccccc1CC(=O)Nc1cccnc1	7	-13	-2.0	2	nt	1	-14
O=C(Nc1ccc(Br)cc1Cl)c1ccc(OCC2CCCO2)cc1 (stereo not given)	5	-3	4.1	nt	2995	6	6
COc1ccc(NC(=O)COC(=O)C2CC2)cc1S(=O)(=O)N1CCCCC1	-6	-4	-0.7	nt	3157	2	1
Cc1cccc(OC(=O)CCN2C(=O)C3C4C=CC(C5CC45)C3C2=O)c1C (stereo not given)	-1	-31	0.3	0	2721	8	0
Cc1oc2c(c1C(=O)NCc1cc(C(=O)O)co1)CCCC2	-1	-17	2.7	8	9101	4	7
Cc1cc(C)n(CCc2nc(-c3ccc(C(C)(C)C)cc3)cs2)n1	3	-3	-4.3	-4	2267	16	1
CCCCN(CCCC)CC(O)COc1ccc(Br)cc1 (stereo not given)	11	-10	1.2	7	3409	1	1
CC(C)[C@H](NC(=O)c1ccc([N+](=O)[O-])cc1Cl)C(=O)N1CCN(C/C=C/c2ccccc2)CC1	3	-15	1.1	nt	4122	0	2
CCCCCC(=O)Nc1cc2[nH]c(=O)cc(COC)c2cc1C	5	1	0.8	6	3945	3	-5
C=CCOC(=O)C1C(=O)CC(C)(O)C(C(=O)OCC=C)C1c1ccc(OCC)cc1 (stereo not given)	-1	46	-0.8	2	2547	nt	nt
c1ccc(-c2nc(C3CCCCC3)no2)cc1	5	-80	8.2	5	3439	nt	nt
NNC(=O)c1ccc(COc2ccccc2)cc1	11	-18	2.1	3	2443	4	12
O=CNCCCc1nc2ccccc2n1Cc1cccc2ccccc12	-14	-18	10	-7	20866*	13	9
Clc1cccc(Cl)c1Cn1c(-c2cccnc2Cl)nc2ccccc21	-1	-15	5.7	-5	7894	7	8
Cc1ccc(C(=O)NC(=S)Nc2nc(-c3cccc([N+](=O)[O-])c3)cs2)c(Cl)c1	nt	-9	nt	0	3595	nt	nt
COc1c(S(=O)(=O)NCCN2CCOCC2)ccc(Cl)c1Cl	6	-34	2.8	-1	6740	8	0
NS(=O)(=O)c1cccc(NS(=O)(=O)c2cccc(C(F)(F)F)c2)c1	6	-17	2.8	3	nt	7	15
CC1(C)CC(NCc2ccccc2)CCO1 (stereo not given)	3	-2	-0.4	nt	3488	2	-7
CCOC(=O)c1sc2cc([N+](=O)[O-])cc(SCC(C)C)c2c1N	7	-19	4.7	-2	20038*	3	4
O=C(c1nc2ccccn2c1CN1CCCC(O)C1)N1CCN(C2CCCCC2)CC1 (stereo not given)	14	-15	5.9	-2	4318	8	2
OCC1(O)OC[C@@H](O)[C@H]1O (stereo not given in full)	-4	-17	1.9	3	5713	nt	nt
CN(C)CCCN(C(=O)c1ccc(S(=O)(=O)N(C)C)cc1)c1nc2ccc(F)cc2s1	2	-15	2.0	-5	2181	3	6
SMILES	ugtP null kill	PrP UTR inh	RN4220 kill	BJeLR viability	Bead autofluor	Mtb hypoxia rep	Mtb hypoxia rep growth
CCn1c(SCC(=O)Nc2nnc(C)s2)nnc1-c1ccco1	-3	nt	-1.3	-4	11287	8	11
Cn1c(=O)n(C)c2cc(C(=O)Nc3ccc(Br)cc3)ccc21	11	-19	8.0	-6	3019	1	-1
CCN1CCCC(OC(=O)C(c2ccccc2)c2ccccc2)C1 (stereo not given)	6	3	7.7	nt	4171	9	5
CC(C)c1ccc(CN(C)C(=O)c2ccc(S(=O)(=O)NCc3ccco3)cc2)cc1	0	-31	0.1	nt	5316	1	7
Nc1nc2ccc(Oc3ccccc3)cc2s1	10	-55	-11	6	3189	3	14
CCCCc1ccc(NC(=S)NCCc2ccc(F)cc2)cc1	-19	13	-1.4	1	2026	2	16
Cc1cc(C(=O)CSc2nc(N)cc(=O)[nH]2)ccc1F	0	-27	0.7	-6	3971	-4	-3
CN(C)CCN1C(=O)C(=O)/C(=C(/O)c2ccccc2)C1c1ccccc1F (stereo not given)	-3	-21	-16	2	3224	8	4
CC(c1ccccc1)(c1ccccc1)c1ccncc1	7	-19	-8.8	4	4432	13	-2
CCOP(=O)(c1ccccc1)C(O)c1ccc([N+](=O)[O-])cc1 (stereo not given)	1	-11	1.4	-3	4193	15	7
COc1ccc(CCNC(=O)CCC(=O)NC2CCCCC2)cc1OC	-2	-22	0.5	-12	3500	-7	-14
Cc1ccc(-c2cc(=O)c3ccc(Cl)cc3[nH]2)cc1	5	-25	2.6	9	3995	1	3
CCNc1[nH]c(=O)n(C)c(=O)c1N=O	5	-15	2.2	-1	2783	1	5

Whole records as entered above:
CC(C)c1ccc(CN(C)C(=O)c2ccc(S(=O)(=O)NCc3ccco3)cc2)cc1 in the list: ugtP null kill = 0; PrP UTR inh = -31; RN4220 kill = 0.1; BJeLR viability = nt; Bead autofluor = 5316; Mtb hypoxia rep = 1; Mtb hypoxia rep growth = 7
Cc1ccc(-c2cc(=O)c3ccc(Cl)cc3[nH]2)cc1 in the list: ugtP null kill = 5; PrP UTR inh = -25; RN4220 kill = 2.6; BJeLR viability = 9; Bead autofluor = 3995; Mtb hypoxia rep = 1; Mtb hypoxia rep growth = 3

Screening data as filed in PubChem BioAssay.
